Bioassay records as filed in PubChem BioAssay.
CSC inhib: blocks cancer stem cells. cancer stem cell-like cells viability, luminescence. inhibition, % at 7.5 µM. actives 1.1% (n = 300,000);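 active = mean at 75% or more and at least half the replicates too; inconclusive = mean and replicates disagree; tested in HMLE shEcad cells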;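 also: 0% = median of negative and 100% = median of positive control wells; the first replicate is given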
PABP FP inh: blocks human PABP binding to poly(A) RNA | P11940 | fluorescence polarization | inhibition, % at 35 µM | actives 1% (n = 290,000);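 active = 50% or more with normal probe brightness, or confirmed in later tests; inconclusive = above 50% with abnormal brightness, or retests that disagree; inactive = below 50% or failed in later tests; about a fifth of its hits are not listed in these tables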;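 also: calls also rest on retests at 20 µM and on dose response follow-up; controls were probe without protein and protein plus probe with vehicle; some compounds called inactive have numbers as strong as hits; many hits fall short of the cut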
MT1-MMP act inh: inhibitors of human MT1-MMP activation. GFP/RFP ratio change, % at 20 µM. P50281. actives 0.061% (n = 360,000). HT1080 RFP-PRO-GFP cells, GFP/RFP ratio fluorescence, overnight; percent of plate control window, DMSO zero;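 active = GFP/RFP ratio change of at least 30% with cell ATP level not reduced by more than half and red fluorescence within 50% of control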; also: strong numbers were not always called active
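Test system: HT1080 RFP-PRO-GFP cells; Benchmarks: DMSO and RFP-L50D-GFP cell wells; Timing: cells overnight before dosing, compound overnight, 37 °C, 5% CO2; Compound: one 20 µM compound dose with 1% DMSO; Read-out: GFP/RFP fluorescence ratio.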
UUG fidelity: modulators of start codon recognition fidelity in yeast; S. cerevisiae UUG-firefly luciferase reporter, luminescence/redox ratio; actives 0.13% (n = 350,000); activity score, % at 18.7 µM;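 active = replicate mean at a twofold rise or more, about +100% in these data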;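 also: firefly luciferase made from a UUG start codon reports start codon fidelity; reporter light over untreated wells divided by growth signal over untreated wells; some hits fall short of that in this replicate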
Env fusion inh: HIV envelope-mediated fusion inhibition | HeLa-JRFL Env/CEM21 cell fusion, luciferase | inhibition, % at 12.3 µM | actives 1.1% (n = 360,000);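 active = mean replicate inhibition score of at least 50 and every replicate individually at or above 50; inconclusive = only one of the two criteria met; inactive = mean below 50 and not all replicates reaching 50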;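 also: 0% = plate neutral controls and 100% = maraviroc near 300 nM; one replicate is shown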
Rce1 inhib: inhibitors of yeast Ras-converting enzyme; calls only; Q03530; actives 0.27% (n = 290,000); AID 2563; yeast membranes, quenched prenylated peptide cleavage fluorescence;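 active = fall in fluorescence gain of 50% or more versus controls, with final raw signal at or below 3038400; inconclusive = same 50% fall but final raw signal above 3038400; inactive = fall in fluorescence gain under 50%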;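 also: plate controls were neutral control wells for no effect and wells lacking membranes for full effect; tested at 10 µM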
Target sequence (Q03530 whole entry, looked up): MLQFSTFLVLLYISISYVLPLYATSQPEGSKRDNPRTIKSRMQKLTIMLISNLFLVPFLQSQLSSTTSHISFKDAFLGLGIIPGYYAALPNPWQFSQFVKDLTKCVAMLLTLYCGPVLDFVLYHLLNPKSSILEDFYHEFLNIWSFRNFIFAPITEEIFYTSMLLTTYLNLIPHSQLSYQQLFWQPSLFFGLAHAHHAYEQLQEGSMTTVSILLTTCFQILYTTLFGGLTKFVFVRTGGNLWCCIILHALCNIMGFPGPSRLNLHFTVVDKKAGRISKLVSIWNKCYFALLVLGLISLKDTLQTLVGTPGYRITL
eIF4H inh: inhibitors of RNA binding by human eIF4H; Q15056; eIF4H fluorescence polarization binding assay; inhibition, % at 35 µM; actives 0.94% (n = 290,000);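 active = 50% or more with normal probe brightness, or confirmed in later tests; inconclusive = above 50% with abnormal brightness, or retests that disagree; inactive = below 50% or failed in later tests; about a fifth of its hits are not listed in these tables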;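 also: calls also rest on retests at 20 µM and on dose response follow-up; 0% = protein and probe with vehicle and 100% = probe without protein; strong numbers were not always called active; many hits fall short of the cut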
eIF4H inh retest: also measured in eIF4H inh; calls as there; inhibition, %; compound at 20 µM; confirmation average;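 mean of two retest wells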
PABP FP inh retest: recorded beside PABP FP inh, whose call it bears; inhibition, %; compound at 20 µM; confirmation repeats;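 mean of two retest wells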
MT1-MMP act inh RFP: recorded beside MT1-MMP act inh, whose call it bears; RFP signal change, %; measured here: RFP expression control read;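 0 = vehicle wells; hits needed this value within 50% of zero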
* hit, by the source's call; i = inactive; ? = inconclusive; · = no result given; & = joins results of further samples; ! = a repeat was not active; [ ] = another dose, or the depositor's remark.

SMILES | CSC inhib | PABP FP inh | MT1-MMP act inh | MT1-MMP act inh RFP | UUG fidelity | Env fusion inh | Rce1 inhib | eIF4H inh | others
Cc1ccc(Nc2nc(N)c([N+](=O)[O-])c(NCc3ccccc3)n2)cc1 | 12 | -2 | -2 | -3 | -7 | 3 | i | -4
O=C(c1ccc(F)cc1)N1C2CCC1CC(O)(c1ccccc1F)C2 (stereo not given) | 3 | -4 | -2 | 0 | 8 | · | i | -12
O=[N+]([O-])c1ccc(O)c(C=NNc2ccc(S(=O)(=O)O)cc2)c1 | · | · | 2 | 0 | -17 | 3 | · | ·
Cc1ccnc(NC(=O)CN2C(=O)c3ccccc3S2(=O)=O)c1 | -1 | · | 5 | 0 | -17 | -11 | i | ·
COC(=O)CNc1nc(-c2cccnc2)nc2ccccc12 | 17 | 10 | -5 | -5 | -16 | -21 | · | 0
Cc1ccc(-c2nnc(Nc3ccc(CC(N)=O)cc3)c3ccccc23)cc1S(=O)(=O)NCCO | -5 | 1 | -1 | 0 | -16 | -9 | i | -10
C[C@H](CO)N1C[C@H](C)[C@@H](CN(C)C(=O)c2cnccn2)Oc2cc(C#CCC3CCCC3)ccc2S1(=O)=O | · | · | 9 | 0 | 121*! | 5&14[16.7 µM] | · | ·
COc1ccc(-c2nc(CS(=O)CC(=O)NCc3ccco3)c(C)o2)cc1OC (stereo not given) | -6 | -10 | 8 | 8 | -9 | 73* | i | 8
COc1ccc(N2CCN(C(c3ccccc3OC)c3nnnn3C3CCCC3)CC2)cc1 (stereo not given) | · | 33 | -7 | -6 | -8 | · | i | 3
CCOC(=O)N1CCN(C(=O)CCSc2ccc(Cl)cc2)CC1 | 5 | -3 | 0 | 0 | -10 | -79 | i | -1
CCOC(=O)C1CCN(C(=O)C2CCN(S(=O)(=O)N3CCC4(CC3)OCCO4)CC2)CC1 | -4 | -1 | 1 | 1 | -3 | -3 | i | 7
COC1CCCN(Cc2nc(Cc3ccccc3F)no2)C1 (stereo not given) | -9 | -4 | 2 | 4 | -20 | 5 | i | -2
Cc1cc(OC(C(=O)O)c2ccccc2)c2c(C)c(Cc3ccccc3)c(=O)oc2c1 (stereo not given) | 13 | 6 | 1 | -7 | 1 | 1 | i | -1
Cc1c(C)c2ccc(O)c(CN3CCN(C)CC3)c2oc1=O | -9 | 0 | 0 | 2 | -9 | -7 | i | -6
Cn1c(N2CCOCC2)nc2c1c(=O)n(Cc1ccc(Cl)cc1)c(=O)n2C | -7 | · | 7 | -1 | 24 | 6 | i | ·
O=S(=O)(Nc1ccc(N2CCCCC2)cc1)c1ccc(F)c(F)c1 | 1 | 0 | 1 | -1 | · | 10 | i | -5
C[C@H](CO)N1C[C@H](C)[C@@H](CN(C)C(=O)Nc2ccc(C(F)(F)F)cc2)Oc2ccc(NC(=O)Nc3ccc(C(F)(F)F)cc3)cc2C1=O | · | · | 20 | -11 | -17 | -15 | · | ·
CCN(CC)C(=O)COc1ccc2c(-c3ccccc3)cc(=O)oc2c1 | -2 | -14 | -4 | 0 | -4 | 37 | i | -17
O=C(c1ccc(NS(=O)(=O)c2cccc(F)c2)cc1)N1CCCC1 | -6 | -1 | 0 | 1 | -3 | 9 | · | -9
COCCOc1ccc(C(F)(F)F)cc1NC(=O)c1ccccc1F | -3 | -3 | 1 | 5 | · | 17 | i | -4
Cc1ccn2cc(CCNC(=O)Cc3cccs3)nc2c1 | -4 | 0 | 3 | 3 | -12 | 8 | i | -9
CC(=O)C1C(c2ccc(F)cc2)NC(=O)NC1(O)C(F)(F)F (stereo not given) | -11 | 4 | -3 | 2 | · | · | i | 0
COc1ccc(-n2c(=O)cc(N3CC(C)OC(C)C3)[nH]c2=O)cc1 (stereo not given) | -4 | -2 | 4 | 0 | -3 | -9 | i | -5
CC(C)c1ccc(CNNC(=O)c2ccccc2)cc1 | -14 | 6 | 5 | 1 | -5 | -59 | i | 6
CCOC(=O)[C@H]1[C@H]2COc3ccccc3[C@@H]2N2C(=O)CN(CC3CCCO3)C(=O)[C@@]12C (stereo not given in full) | · | · | 0 | 3 | -3 | -4 | · | ·
O=C(CNC(=O)c1ccccc1O)N/N=C/c1ccccn1 | · | -10 | 0 | 0 | · | 10 | i | -2
Cc1ccc(NCc2nnc(SCC(=O)OC3CCCCC3)o2)c(C)c1 | -1 | 3 | 3 | 0 | -13 | -45 | i | -12
Cc1c(C(=O)O)sc2ncn(C)c(=O)c12 | -9 | 6 | 1 | 4 | -19 | 1 | · | -6
O=S(=O)(c1ccccc1)c1nc(-c2ccco2)oc1NCCN1CCOCC1 | · | 1 | -1 | 6 | -8 | · | i | 6
O=C1CC(c2cc(-c3ccccc3)no2)C1 | -7 | 10 | 1 | -1 | -18 | -22 | i | 8
C=CCn1c(C)cc(C2=NNC(=NCC)SC2)c1C | 14 | -6 | 5 | 2 | · | 69* | i | 19
CC(=O)Nc1ccc(N2CCN(Cc3ccccc3)CC2)cc1 | 6 | -8 | 6 | 3 | -12 | 23 | i | 0
COc1ccccc1NC(=O)c1cc(C(=O)Nc2ccccc2OC)n(C)n1 | 34 | · | 7 | 0 | · | -5 | i | ·
CC(C)CN1CN(S(=O)(=O)c2cccs2)c2nc3ccccc3nc21 | · | 13 | · | · | · | · | i | -9
COC(=O)COc1ccc(S(=O)(=O)Nc2ccc(NC(C)=O)cc2)cc1C | 3 | 4 | 6 | 3 | · | -22 | i | -14
O=C(CN1CCC(c2nc3ccccc3s2)CC1)NCc1ccccc1 | -3 | -6 | 6 | -2 | -21 | -4 | i | 6
COc1cccc(Nc2ncnc3c2cnn3C)c1 | 2 | 7 | 4 | 1 | -8 | · | i | -6
CCOC(=O)c1csc(NC(=O)c2cccs2)n1 | 3 | 4 | -24 | -17 | -13 | -45 | i | -5
O=S(=O)(c1ccccc1)N(CC(O)CN1CCCC1)c1ccccc1 (stereo not given) | · | 7 | -2 | 2 | -6 | -3 | i | 2
Nc1ccc(N2CCN(C(=O)c3ccco3)CC2)cc1 | 8 | -11 | 43* | 33* | -12 | 27 | i | 6
O=C(COc1ccc2c3c(c(=O)oc2c1)CCCC3)N1CCN(c2ccccc2)CC1 | 4 | 4 | 2 | 3 | -4 | -3 | i | -8
COC(C[C@H]1O[C@@H]1C(=O)[C@H](C)OCc1ccccc1)OC | 1 | · | 1 | 1 | 4 | -14 | i | ·
Cc1ccc(OCc2ccc(C(=O)NNC(=S)NCC3CCCO3)o2)c([N+](=O)[O-])c1 (stereo not given) | 8 | 2 | 1 | 2 | -24 | 1 | i | 10
CCOc1ccc(CCNC(=O)COC(=O)/C=C/c2ccc(OCC#N)c(OC)c2)cc1OCC | -15 | -6 | 4 | 4 | 6 | · | i | 1
CCOc1ccc(/C=N/NC(=O)CCC(=O)Nc2ccc(F)cc2)cc1 | -11 | -4 | -3 | -1 | -7 | 23 | i | -6
C/C(=N/NC(=O)c1ccc(C)s1)c1cccnc1 | -7 | -16 | -4 | -2 | -17 | -14 | i | -1
CCCn1c(N)c(N(C)C)c(=O)n(CC(=O)Nc2ccc(OC(F)(F)F)cc2)c1=O | -13 | 11 | 4 | 4 | -8 | · | i | 8
CC(=O)Nc1ccc2c(c1)Cc1cc(N3C(=O)C=CC3=O)ccc1-2 | · | · | 5 | 3 | -24 | -18 | · | ·
CC(C)c1[nH]nc2c1C1(CCN(Cc3ccccc3)CC1)C(C#N)=C(N)O2 | -2 | ? | -21 | 5 | · | 9 | i | ?
C/C(=N/OC(=O)c1ccc(C(F)(F)F)cc1)c1oc(C)nc1C | 0 | 8 | 4 | 4 | 1 | -8 | i | -8

Three neighbouring entries out of the list so far:
SMILES | CSC inhib | PABP FP inh | MT1-MMP act inh | MT1-MMP act inh RFP | UUG fidelity | Env fusion inh | Rce1 inhib | eIF4H inh | others
O=C(COc1ccc2c3c(c(=O)oc2c1)CCCC3)N1CCN(c2ccccc2)CC1 | 4 | 4 | 2 | 3 | -4 | -3 | i | -8
COC(C[C@H]1O[C@@H]1C(=O)[C@H](C)OCc1ccccc1)OC | 1 | · | 1 | 1 | 4 | -14 | i | ·
Cc1ccc(OCc2ccc(C(=O)NNC(=S)NCC3CCCO3)o2)c([N+](=O)[O-])c1 (stereo not given) | 8 | 2 | 1 | 2 | -24 | 1 | i | 10

(listing goes on)
SMILES | CSC inhib | PABP FP inh | MT1-MMP act inh | MT1-MMP act inh RFP | UUG fidelity | Env fusion inh | Rce1 inhib | eIF4H inh | others
Cn1c(N)c(C(=O)CSc2ccccn2)c(=O)n(C)c1=O | · | -3 | -3 | -3 | -9 | -10 | i | 4
CC1(C)CC(c2csc(N)n2)CCO1 (stereo not given) | -10 | -1 | -3 | 3 | -8 | · | i | -4
Cc1ccn(Cc2n[nH]c(=S)n2Cc2ccccc2)n1 | -10 | 27 | -2 | -2 | · | · | i | -4
COc1ccc(N(CC(O)CN2CCOCC2)S(=O)(=O)c2ccc(C)cc2)cc1 (stereo not given) | · | 20 | 1 | 4 | -13 | -3 | i | -3
COc1ccccc1-c1c(C(F)(F)F)oc2cc(OC(=O)c3ccccc3[N+](=O)[O-])ccc2c1=O | 2 | -15 | -1 | -4 | -5 | 22 | i | -5
COC(=O)[C@]12C(=O)NC[C@H](CN1c1ccc(Cl)c(C)c1)N2C | -3 | · | -1 | 4 | -18 | -22 | · | ·
Cc1nn(-c2ccc(F)cc2)c2c1cc(C#N)c1nc3ccccc3n12 | 2 | -5 | -5 | -5 | -5 | 7 | i | 3
CS(=O)(=O)Nc1ccc(C2=NN(C(=O)c3ccco3)C(c3ccco3)C2)cc1 (stereo not given) | 8 | -6 | -3 | -10 | -5 | -1 | i | -5
COC(=O)[C@@H]1[C@@H](C)OC(=O)N[C@H]1c1ccccc1 | 5 | 10 | 3 | 5 | -12 | -4 | i | 5
COc1ccccc1NC(=O)Nc1ccnn1C1CCN(C(=O)c2ccccn2)CC1 | -6 | 6 | -5 | 0 | 2 | 3 | i | -17
COc1ccc(C(=O)CCNc2ccc3c(c2)OCCO3)cc1 | 4 | 9 | 1 | -1 | -23 | 13 | i | 4
O=C1COc2ccc(C(=O)c3ccccc3)cc2CN1 | -3 | 9 | -17 | -4 | -6 | -51 | i | -3
COC(=O)N/N=C/c1cn(CCCOc2ccc(C)cc2)c2ccccc12 | 26 | 66 | -9 | -20 | -28 | 0 | i | 8 | eIF4H inh retest=6;PABP FP inh retest=0
Cc1sc2nc(CN(Cc3cccs3)C(=O)C3CC3)[nH]c(=O)c2c1C | 1 | -12 | -3 | -7 | -16 | 8 | i | -7
COc1ccc(-c2ccc(C(=O)NCc3cccs3)c3occc23)c(C)c1 | · | · | -2 | -13 | -1 | -7 | · | ·
CC1CCCC(NC(=O)Nc2cccs2)C1C (stereo not given) | 8 | 16 | 1 | 7 | -14 | -5 | i | 7
COc1ccc(CNC(=O)CSc2nc3ccc(N)cc3s2)cc1 | 6 | 19 | -3 | 2 | · | 5 | i | -3
O=C1COc2ccc(C(=O)COC(=O)c3ccccn3)cc2N1 | -14 | · | -5 | 3 | -3 | -27 | i | ·
CC(=O)N1CCN(CC(=O)Nc2ccccc2Sc2ccccc2)CC1 | -13 | 34 | 0 | -4 | · | -3 | i | -2
Cc1c2c(nc3ccccc13)CC(C)(C)CC2=O | 15 | 27 | -7 | -3 | · | -2 | i | 3
CC(C)C(=O)N=C1SC2CS(=O)(=O)CC2N1Cc1ccc(Cl)cc1 (stereo not given) | 3 | 3 | 2 | 3 | · | 7 | i | 4

Random draw from the library; 2.9% or so of the library scored in one or more.
